D2 PAM = Beta-Arrestin HTS for Positive Allosteric Modulators of the Human D2 Dopamine Receptor: Potentiators. D(2) dopamine receptor (Homo sapiens), P14416. DiscoveRx D2 beta-arrestin cells, luminescence, 90 min; 100% = 57 uM dopamine signal. potentiation, % (concentration not given with the values). 360,000 tested, 0.23% active. AID 624464, 2012; active = potentiation of 50% or more; inconclusive = 30% to 50%; inactive = 30% or less;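 note: compound concentration not given in the record; tested on top of an EC20 dose of dopamine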
Target sequence (P14416 whole entry, looked up): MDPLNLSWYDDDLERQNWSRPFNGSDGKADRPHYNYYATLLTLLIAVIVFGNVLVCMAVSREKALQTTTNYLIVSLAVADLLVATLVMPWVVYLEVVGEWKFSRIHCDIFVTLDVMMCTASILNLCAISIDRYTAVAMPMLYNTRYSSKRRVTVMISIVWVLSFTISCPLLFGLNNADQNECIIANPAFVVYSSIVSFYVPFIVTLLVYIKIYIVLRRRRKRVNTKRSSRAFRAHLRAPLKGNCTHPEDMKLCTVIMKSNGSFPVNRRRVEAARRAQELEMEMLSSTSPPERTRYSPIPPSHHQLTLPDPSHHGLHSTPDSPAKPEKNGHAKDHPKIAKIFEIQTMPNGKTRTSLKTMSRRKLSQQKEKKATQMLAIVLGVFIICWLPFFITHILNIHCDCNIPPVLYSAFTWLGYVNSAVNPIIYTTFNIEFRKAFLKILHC
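PathHunter D2 cells, attached overnight at 37 deg C, received compound in DMSO plus dopamine at EC20 (50 nM final) for 90 min at 37 deg C. Beta-arrestin recruitment was read as luminescence after 1 h with detection reagent at ambient temperature.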
TRPML1 ag = qHTS for Agonists of the Human Mucolipin Transient Receptor Potential 1 (TRPML1). Mucolipin-1 (Homo sapiens), Q9GZU1. TRPML1-expressing cells, Ca2+ dye fluorescence, FDSS; host cell line not named in the record; reference of the full effect not given here. 410,000 tested, 0.12% active. activation, % (no concentration beside the values); in the data active = activation above about 50%; inconclusive = about 30% to 50%; inactive = below about 30%; note: 0% is about no effect; the text of the record puts the active cut at 80%
Target sequence (Q9GZU1 whole entry, looked up): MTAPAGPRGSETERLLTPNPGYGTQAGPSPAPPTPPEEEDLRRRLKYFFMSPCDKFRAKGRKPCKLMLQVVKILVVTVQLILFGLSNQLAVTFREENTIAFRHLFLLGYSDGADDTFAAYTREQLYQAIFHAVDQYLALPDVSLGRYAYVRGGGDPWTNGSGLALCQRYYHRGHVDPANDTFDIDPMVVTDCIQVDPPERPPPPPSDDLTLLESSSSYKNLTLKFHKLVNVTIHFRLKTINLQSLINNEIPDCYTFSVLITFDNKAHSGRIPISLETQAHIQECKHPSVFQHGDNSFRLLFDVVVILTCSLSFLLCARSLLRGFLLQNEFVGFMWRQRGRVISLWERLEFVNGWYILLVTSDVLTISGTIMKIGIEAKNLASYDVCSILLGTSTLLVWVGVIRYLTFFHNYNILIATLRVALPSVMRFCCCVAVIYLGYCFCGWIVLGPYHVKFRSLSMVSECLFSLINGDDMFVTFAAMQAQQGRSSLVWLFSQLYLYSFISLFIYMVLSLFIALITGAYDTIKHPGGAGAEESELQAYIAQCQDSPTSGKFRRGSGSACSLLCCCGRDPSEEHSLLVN
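TRPML1-DL cells, Tet-induced overnight (~16 h, 37 degrees C), loaded 45-90 min at room temperature with Ca8 no-wash calcium dye plus quencher. FDSS fluorescence: 10 s baseline, compound pin-transfer, 110 s agonist read, then EC80 54-4 (4uM final) and 110 s antagonist read.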
TRPV1 potentiator = HTS Assay for Compounds that Act as Potentiators of the Vanilloid Receptor 1; 320,000 tested, 0.02% active; potentiation, % at 8.33 µM; TRPV1-expressing cells, Fluo-8 calcium influx, capsaicin EC20 potentiation; host cell line not named in the record; control for the full effect not named in the record; Transient receptor potential cation channel subfamily V member 1 (Homo sapiens), Q8NER1; AID 540277, 2011; active means potentiation above 80%; inconclusive means 30% to 80%; inactive means below 30%; note: 0% is about no effect
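Fluo-8 calcium influx in TRPV1-expressing cells, kinetic read (ex 480/em 520 nm). Compound added and read 3 min for agonist activity, followed by capsaicin at EC20 final and 2 min further read for enhancement.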
TRPML1 inh = qHTS for Inhibitors of the Human Mucolipin Transient Receptor Potential 1 (TRPML1); TRPML1-inducible cells, Ca2+ dye fluorescence, FDSS; stronger effect = lower value; inhibition of EC80 agonist-evoked calcium signal; activity change, negative = inhibition, % (test concentration not listed); 390,000 tested, 0.02% active; in the data active means activity change below about -50%; inconclusive means about -30% to -50%; inactive means above about -30%;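 note: stimulus is agonist 54-4 at its EC80 concentration; % is set by controls: 0 for no effect and ±100 for the full control effect; compound concentration not given in the record; the text of the record puts the active cut at -80%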
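Calcium fluorescence in TRPML1-DL cells induced overnight with Tet: a 110 s read after compound pin addition, then a 110 s antagonist read after challenge with 54-4 at 4 uM final (EC80).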
CtBP-E1A blk = qHTS Assay for Inhibitors of the CtBP/E1A Interaction | CtBP / adenovirus E1A interaction (AlphaScreen) | AlphaScreen GST-E1A/His-CtBP binding, 1536-well; stronger effect = lower value; control for the full effect not named in the record | activity change, % (concentration not given with the values) | 340,000 tested, 0.49% active; in the data active means activity change below about -65%; inconclusive means about -30% to -65%; inactive means above about -30%; note: % is set by controls: 0 for no effect and ±100 for the full control effect
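AlphaScreen with 125 nM GST-E1A and 125 nM His-CtBP (5X stocks) in Tris pH 8.0, 300 mM NaCl, BSA, Tween 20, TCEP. Compounds preincubated 2 h at 37 deg C, then glutathione donor/nickel acceptor beads added for 1 h at 37 deg C in dark.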
Six1-Eya2 blk = qHTS Assay for Inhibitors of the Six1/Eya2 Interaction; 360,000 tested, 0.56% active; activity change, % (test concentration not listed); AlphaScreen GST-Six1/His-Eya2 binding, biochemical; stronger effect = lower value; control for the full effect not named in the record; in the data active = activity change below about -65%; inconclusive = about -30% to -65%; inactive = above about -30%; note: % is set by controls: 0 for no effect and ±100 for the full control effect; compound concentration not given in the record
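GST-Six1 + His-Eya2 (5X stock: 250/500 nM); Tris pH 8.0, 300 mM NaCl, 0.05% BSA, 0.02% Tween 20; GSH donor/Ni acceptor beads; 1 h 37 °C dark; AlphaScreen readout.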
Active calls of the source: *; ? = inconclusive; / = not tested or not shown; & = joins results of further samples.

molecule	D2 PAM	TRPML1 ag	TRPV1 potentiator	TRPML1 inh	CtBP-E1A blk	Six1-Eya2 blk
Cc1ccc(NC(=O)CCS(=O)(=O)c2ccccc2)cc1S(=O)(=O)N1CCCCCC1	-0.9	3.8	-8.1	-3.2	-2.8	1.8
O=C(O)CCc1ccc(-c2ccc(Br)cc2)n1-c1cccc(O)c1	-4.3	0.7	-2.5	2.4	/	-10.0
Cc1ccc(/C=N/n2c(C3CCCCC3)n[nH]c2=S)s1	-8.9	2.0	-12.5	-2.6	-7.9	2.5
COc1ccc(-c2csc(N(CCCN(C)C)C(=O)c3ccc(F)cc3)n2)cc1	-13.3	0.3	-5.6	-5.3	-2.8	-2.2
CCN(CC)CCC#CC(O)(c1ccccc1)c1ccccc1	7.2	0.7	1.4	6.1	3.0	0.4
CCOC(=O)C1=C(COC(=O)/C=C/c2cccc(Cl)c2)NC(=O)NC1C (stereo not drawn)	-13.7	1.2	12.9	22.2	3.4	1.6
O=C(CCSc1nc2ccccc2o1)Nc1ccccc1	-2.4	2.3	-5.6	11.9	/	6.2
Cc1ccccc1NC(=O)CSc1nccn1Cc1ccco1	-18.9	-0.7	/	9.2	-6.9	-1.3
CCN(CC)C(=O)CSc1nc(N)c(C#N)c(-c2cccs2)c1C#N	-15.3	-1.0	-1.9	-1.0	-24.3	-20.4
COc1ccc(-c2ccc3c(c2)S(=O)(=O)c2cccc(C(=O)N4CCN(C5CCCCC5)CC4)c2C3=O)cc1OC	118.2*	-0.5	/	-8.3	-0.7	-21.2
CCOC(=O)c1c(C)n(C)c2ccc(O)c(CN3CCC(C)CC3)c12	-5.9	-0.3	-19.5	29.3	-4.1	-9.8
CCN(CC)c1ccc(NC(=O)c2ccccc2OCC(=O)OC)cc1	-2.0	4.2	11.2	29.6	?	?
CCN(CC)S(=O)(=O)c1ccc2c(c1)nc(SCC(=O)N1CCOCC1)n2-c1ccccc1OC	-10.5	0.6	-24.6	5.3	-5.9	-1.9
O=C(CSc1ccc(Cl)cc1)NC(=O)c1ccccc1	-2.2	-0.3	-14.5	-3.7	-5.7	10.8
O=C(COc1ccc(S(=O)(=O)N2CCCC2)cc1Cl)NCc1ccco1	-2.5	0.4	14.5	5.6	0.5	-0.8
COc1ccc(CCNC(=O)C(=O)NCCOc2ccccc2Cl)cc1OC	-5.0	-0.6	7.7	22.4	1.3	-10.7
Cc1ccc(NC(=O)NCc2ccc3c(c2)OCO3)c(C)c1	7.6	-0.5	17.4	-14.9	5.8	2.6
COc1ccc2c(c1)CCCC2NS(=O)(=O)OCC(Cl)(Cl)Cl (stereo not drawn)	-2.5	-0.6	-11.5	-1.7	9.2	1.2
COc1cccc(-c2csc(N3CCN(CC(=O)Nc4ccc5c(c4)OCO5)CC3)n2)c1	-4.0	-0.1	6.7	5.4	-25.0	?
COc1ccccc1-c1sc2cc3c(cc2c1-c1ccc(OCCN2CCCCC2)cc1)OCO3	-20.1	-0.2	/	26.2	-2.9	-28.9
CCc1ccc(NC(=O)C2C3CCC(O3)C2C(=O)O)cc1 (stereo not drawn)	8.0	0.0	12.3	-8.7	/	1.9
c1ccc(OCCOCCN2CCOCC2)cc1	-21.8	0.1	9.6	-4.6	6.2	1.0
O=C(NCc1ccc(F)cc1)C1CCCN(S(=O)(=O)c2ccc(Br)s2)C1 (stereo not drawn)	-3.4	-0.3	8.7	1.6	5.6	3.0
CS(=O)(=O)c1ccc(S(=O)(=O)N2CCC(CO)(CCCc3ccccc3)CC2)cc1	-2.8	-0.2	-3.4	11.9	8.7	-1.5
CCN(C[C@H]1N[C@@](CC)(C(=O)OC)[C@H]2C(=O)N(C)C(=O)[C@@H]12)S(=O)(=O)c1ccc(C(C)(C)C)cc1	-0.9	2.6	/	-10.2	4.1	0.0
CCOC(=O)C1CCN(C(=O)c2cc3cc(Cl)ccc3[nH]2)CC1	-4.6	1.3	-1.1	-13.1	-0.2	-6.8
CCOCCCN1CC(C(=O)NCCc2ccccc2)CC1=O (stereo not drawn)	-5.7	0.6	0.2	-11.0	2.0	5.7
N#Cc1cc2ccccc2nc1SCc1ccccn1	-10.1	2.0	5.5	-16.6	7.6	1.7
O=C(NCN1CCc2ccccc2C1)c1cnccn1	-21.0	0.5	15.4	-11.8	-9.7	2.7
O=C(NCCOc1cccc2cccnc12)c1cccs1	-7.7	0.3	6.4	-0.5	0.2	-2.2
CCN1C(=O)NC(c2ccc(Cl)cc2)C2=C1CCCC2=O (stereo not drawn)	-2.7	0.8	-13.2	2.0	4.3	12.8
O=C(c1cccc(C(F)(F)F)c1)N1CCOC12CCN(c1ncc(C(F)(F)F)cc1Cl)CC2	8.0	-0.2	-2.2	1.6	-0.7	11.9
O=C1CCN(C(=O)Nc2ccccc2)N1	-3.8	-0.2	16.2	-6.1	6.6	2.0
COc1ccccc1NOC(=O)CCOc1ccccc1	-3.2	-0.7	/	3.5	24.5	11.5
Cc1ccc(SCC(=O)NCCCc2ccccc2)cc1	-3.4	0.3	-12.3	0.5	0.0	-3.3
CC(C)[C@@H](N)C(=O)NCC1CCC(C(=O)N[C@@H](Cc2ccccc2)C(=O)O)CC1 (stereo partly drawn)	-5.8	-0.3	-22.7	6.8	-13.2	0.8
ClCc1nc2ccccc2c2ccccc12	-11.2	8.5	23.9	-17.3	4.1	0.8
CN(C)/C=C1\C(=O)N(c2ccc(Cl)cc2)CS1(=O)=O	-4.1	-0.4	-15.0	-1.5	4.6	7.1
O=C(Nc1ccc(F)cc1)c1sc2cc(C(F)(F)F)cnc2c1-c1cccs1	-24.2	1.2	-0.5	14.3	2.4	7.3
CCOC(=O)Nc1ccc2nc(Sc3ccc(Cl)cc3)sc2c1	?	1.9	4.7	11.5	/	16.7

Entries above marked active in D2 PAM:
| canonical_smiles | D2 PAM | TRPML1 inh | CtBP-E1A blk | Six1-Eya2 blk |
| --- | --- | --- | --- | --- |
| COc1ccc(-c2ccc3c(c2)S(=O)(=O)c2cccc(C(=O)N4CCN(C5CCCCC5)CC4)c2C3=O)cc1OC | 118.2* | -8.3 | -0.7 | -21.2 |

Fetched by structure from the list above:
molecule	D2 PAM	TRPML1 ag	TRPV1 potentiator	TRPML1 inh	CtBP-E1A blk	Six1-Eya2 blk
CCN(CC)C(=O)CSc1nc(N)c(C#N)c(-c2cccs2)c1C#N	-15.3	-1.0	-1.9	-1.0	-24.3	-20.4
O=C(Nc1ccc(F)cc1)c1sc2cc(C(F)(F)F)cnc2c1-c1cccs1	-24.2	1.2	-0.5	14.3	2.4	7.3

The list goes on:
molecule	D2 PAM	TRPML1 ag	TRPV1 potentiator	TRPML1 inh	CtBP-E1A blk	Six1-Eya2 blk
COc1ccccc1/C=N/NC(=O)c1cccc2ccccc12	-8.4	-0.3	-1.7	13.4	7.1	3.4
C=CCC1(N(C(C)=O)c2ccccc2C)CCCCC1	-8.6	0.0	-6.0	44.8	/	14.0
COc1ccccc1NC(=O)CSc1nnnn1-c1ccc(C(=O)O)cc1	-27.0	-0.7	7.9	-0.3	7.0	-14.8
Cc1cc2oc(=O)cc(CN(C)Cc3ccccc3Cl)c2cc1C	-4.9	2.9	2.0	82.8	-14.6	0.9
CC(=O)Nc1ccc(NC(=O)C(C)OC(=O)CN2C(=O)C3CCCCC3C2=O)cc1 (stereo not drawn)	10.1	0.1	3.9	-4.8	-6.4	3.5
N/C(=N\OC(=O)CCC1CCCCC1)c1ccc([N+](=O)[O-])cc1	-6.6	0.8	-18.1	-6.6	-18.0	-12.9
ClCC1=Nc2ccccc2Cc2ccccc21	-10.0	4.6	/	-22.8	-6.2	-5.6
COc1cc(CNc2cccc(C(=O)O)c2)cc(Br)c1OCC(=O)NC(C)(C)C	4.4	-0.4	10.3	14.3	0.2	3.1
CC(C)(C)c1cc(=O)[nH]c(SCc2ccccc2)n1	-1.1	3.5	5.1	13.8	-19.1	3.4
Cc1cccc(C)c1NC(=O)N1C(C(=O)O)CSC1C(=O)O (stereo not drawn)	-3.4	-0.1	8.8	15.0	0.0	5.9
O=C(NCC1CCCO1)c1cc2c([nH]c3ccccc32)c(-c2cccc(Br)c2)n1 (stereo not drawn)	-64.5	/	25.1	/	0.1	2.2
Cc1cccn2cc(-c3ccc(S(=O)(=O)N4CCCCC4)cc3)nc12	3.6	1.4	4.2	-2.1	-13.6	-2.7
O=C(c1ccc(Br)s1)N1CCN(C/C=C/c2ccccc2)CC1	-19.1	0.7	-13.1	2.1	-2.5	-4.5
COc1ccccc1-c1ccc2c(c1)C(C)(Cc1ccc(Cl)c(Cl)c1)C(=O)N2 (stereo not drawn)	-2.1	-0.7	/	/	7.6	-1.2
O=c1oc2ccccc2cc1-c1nnc(-c2cccc(Br)c2)o1	-6.0	0.0	5.0	2.7	8.4	6.4
Cc1ccccc1C(=O)N1CCN(C(c2ccccc2)c2ccccc2)CC1	-14.2	1.3	-17.6	8.9	/	-1.5
COc1ccccc1C(=O)NNC(=O)CCN1C(=O)/C(=C\c2ccccc2)SC1=S	-3.5	-0.6	0.5	17.5	7.9	7.1
Cc1ccc(-c2csc(N3CCN(S(=O)(=O)c4ccc5c(c4)NC(=O)CO5)CC3)n2)cc1	-10.3	-1.2	21.3	-10.0	8.7	3.3
C=CCn1c(-c2cc3cccc(OC)c3o2)n[nH]c1=S	-11.5	3.5	0.6	24.7	0.9	-11.3
O=C(CCC(=O)NNC(=O)Nc1ccc(Cl)cc1)NCc1ccccc1	-10.5	0.6	-1.6	-7.1	4.3	2.0
Cc1ccc(C2(C)NC(=O)N(CC(=O)N3CCN(S(=O)(=O)c4ccccc4[N+](=O)[O-])CC3)C2=O)cc1 (stereo not drawn)	3.9	-0.5	/	4.0	/	-4.5
CCNc1nc(NC(C)CC)nc(Oc2ccc(OCC)nn2)n1 (stereo not drawn)	-5.9	0.2&0.3	0.9	-5.5&5.3	/	2.8
O=[N+]([O-])c1ccc2nc(SCc3cn4cc(Cl)ccc4n3)[nH]c2c1	-1.4	-0.2	6.7	15.1	-13.7	-15.4
CC(NC(=O)c1ccccc1Br)c1ccc2c(c1)CCCC2 (stereo not drawn)	-4.9	2.1	-8.0	-11.7	7.6	1.3
CCOc1cc(S(=O)(=O)N(CC)CC)ccc1Cl	-6.9	5.9	-2.2	12.9	15.6	6.5
COC(CNC(=O)C(=O)NCC1CCCN1S(=O)(=O)c1cccs1)OC (stereo not drawn)	4.5	0.1	1.2	11.4	-7.5	10.9
Cc1cc(C)nc(N2CCCC(C(=O)NCCc3cccc(F)c3)C2)n1 (stereo not drawn)	-1.2	2.4	1.6	13.5	8.8	2.4
